# D2 PAM = positive allosteric modulators of human D2 dopamine receptor; potentiation, % (no concentration beside the values); DiscoveRx D2 beta-arrestin cells, luminescence, 90 min; 100% = 57 uM dopamine signal; P14416; 360,000 tested, 0.23% active; AID 624464; active = potentiation of 50% or more; inconclusive = 30% to 50%; inactive = 30% or less;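 also: compound concentration not given in the record; tested on top of an EC20 dose of dopamine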
#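 PathHunter D2 cells, attached overnight at 37 deg C, received compound in DMSO plus dopamine at EC20 (50 nM final) for 90 min at 37 deg C. Beta-arrestin recruitment was read as luminescence after 1 h with detection reagent at ambient temperature.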
# Sfp inh = Sfp phosphopantetheinyl transferase inhibition | Biochemical Sfp PPTase activity, qHTS | Potency, µM, for inactives: max response, negative = inhibition, usual class: inhibitors | 310,000 tested, 3.5% active; active = well fitted inhibition curve with a large enough effect; inconclusive = small, poorly fitted or top-dose-only effect, or another doubt; inactive = no such curve, though single readings can be large or run the other way;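 also: the enzyme is Sfp with the accession as filed and its product quenches rhodamine fluorescence; potency is read from the fitted curve at half-maximal effect; 0% = enzyme reaction without inhibitor and -100% = no enzyme wells; top concentration of the series not given in the record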
#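 Buffer: 50 mM Hepes-Na pH 7.6, 10 mM MgCl2, 0.01% Nonidet P-40, 0.01% BSA. Enzyme 15 nM, pre-exposed to compound 15 min; substrates then added and fluorescence change tracked over 30 min.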
# gsp ag = agonists of gsp mutant (McCune-Albright syndrome) | gsp mutant cells, cAMP HTRF, 30 min; control for the full effect not named in the record | Potency, µM (top dose mostly 76.9 µM), without a hit: top-dose activation (cAMP increase), usual class: activators | 340,000 tested, 0.13% active | AID 624287; active = well fitted activation curve with a large enough effect; inconclusive = small, poorly fitted or top-dose-only effect, or another doubt; inactive = no such curve, though single readings can be large or run the other way; cell line not stated here;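 also: phosphodiesterase inhibitor Ro 20-1724 added with compounds to block cAMP breakdown; potency is read from the fitted curve at half-maximal effect; nearly all actives have a fitted effect of over 60% in size; about a fifth of the inactives were tested at one dose only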
#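 Cells in DMEM/10% FBS with G418 were pretreated with compounds in DMSO plus […] (300 uM stock) for 30 min at 37C. cAMP was measured by HTRF (cAMP-d2 plus anti-cAMP antibody-K) after 30 min at room temperature.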
# TRPV1 potentiator = enhances activation of the human vanilloid receptor TRPV1; Q8NER1; TRPV1-expressing cells, Fluo-8 calcium influx, capsaicin EC20 potentiation; host cell line not named in the record; control for the full effect not named in the record; potentiation, % at 8.33 µM; 320,000 tested, 0.02% active; AID 540277; active means potentiation above 80%; inconclusive means 30% to 80%; inactive means below 30%; also: 0% is about no effect
# Target sequence (Q8NER1 whole entry, looked up): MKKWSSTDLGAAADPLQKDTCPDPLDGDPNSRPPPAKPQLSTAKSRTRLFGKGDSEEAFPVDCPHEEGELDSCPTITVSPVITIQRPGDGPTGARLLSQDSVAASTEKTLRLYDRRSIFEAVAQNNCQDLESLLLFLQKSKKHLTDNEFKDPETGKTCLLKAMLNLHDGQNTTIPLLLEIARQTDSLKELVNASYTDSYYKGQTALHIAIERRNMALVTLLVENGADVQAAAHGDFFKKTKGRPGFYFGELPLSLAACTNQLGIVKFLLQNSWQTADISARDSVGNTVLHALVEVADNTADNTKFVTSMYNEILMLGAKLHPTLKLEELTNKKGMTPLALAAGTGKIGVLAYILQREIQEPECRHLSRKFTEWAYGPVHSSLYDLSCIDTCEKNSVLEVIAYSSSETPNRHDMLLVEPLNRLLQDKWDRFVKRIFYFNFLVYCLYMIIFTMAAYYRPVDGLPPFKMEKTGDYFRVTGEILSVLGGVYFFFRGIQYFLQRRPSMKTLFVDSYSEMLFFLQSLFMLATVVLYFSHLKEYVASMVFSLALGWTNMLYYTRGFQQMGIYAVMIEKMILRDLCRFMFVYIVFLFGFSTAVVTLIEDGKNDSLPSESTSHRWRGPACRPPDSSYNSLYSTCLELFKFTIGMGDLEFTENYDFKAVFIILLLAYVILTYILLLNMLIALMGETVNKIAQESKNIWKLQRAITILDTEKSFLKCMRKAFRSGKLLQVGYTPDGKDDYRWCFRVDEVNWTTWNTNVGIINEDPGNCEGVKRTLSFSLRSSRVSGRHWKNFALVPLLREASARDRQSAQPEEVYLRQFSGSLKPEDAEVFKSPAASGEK
#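 Fluo-8 calcium influx in TRPV1-expressing cells, kinetic read (ex 480/em 520 nm). Compound added and read 3 min for agonist activity, followed by capsaicin at EC20 final and 2 min further read for enhancement.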
# gsp antagonist = antagonists of gsp mutant (McCune-Albright syndrome); gsp-mutant cells, cAMP HTRF, 30 min; control for the full effect not named in the record; Potency, µM (highest dose often 76.9 µM), for inactives: at the highest dose activity change, negative = inhibition, hits mostly inhibitors; 340,000 tested, 0.4% active; active = falling curve of any shape with a large fitted effect; inconclusive = falling curve, mostly with a smaller effect; inactive = flat or rising curve; cell line not stated here;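 also: intracellular cAMP measured with PDE inhibitor Ro 20-1724 present during compound exposure; potency is read from the fitted curve at half-maximal effect; % is scaled to controls: 0 for no effect and ±100 for the full control effect; nearly all actives have a fitted effect of over 65% in size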
#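 HTRF cAMP measurement after 30 min RT detection following 30 min, 37C compound treatment alongside […] (added as 300 uM solution) in G418-selected cells seeded at 2000/well and grown 16–24 h.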
# Menin-MLL FL inh = displaces fluorescein MLL peptide from human menin; Fluorescence polarization, fluorescein-MLL peptide displacement from menin; FP activity change, % at 61.4 µM; 290,000 tested, under 10 active; AID 1766; inconclusive = falling polarisation curve, or a change in total fluorescence; inactive = total fluorescence flat and polarisation flat or rising; no compound was filed as active; the % refers to the polarisation; negative = inhibition;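 also: % of control where 0% means no effect; inhibitors lower the polarisation; unlabelled MLL peptide was the positive control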
# ClpP mod = qHTS Assay for Activators of ClpP | Potency, µM (highest dose often 57.5 µM), for inactives: at the highest dose activity change, negative = active | purified B. subtilis ClpP, FRET peptide cleavage, 20 min | 340,000 tested, 1.9% active | ATP-dependent Clp protease proteolytic subunit (Bacillus subtilis (strain 168)), P80244; active = well fitted falling curve with a large enough effect; inconclusive = small, poorly fitted or top-dose-only effect; inactive = no such curve, though single readings can be large or run the other way; also: potency is read from the fitted curve at half-maximal effect; the source files actives as falling curves though it sought activators and does not explain the sign; nearly all actives have a fitted effect of over 65% in size; many hits overshoot -100%
# Target sequence (P80244 whole entry, looked up): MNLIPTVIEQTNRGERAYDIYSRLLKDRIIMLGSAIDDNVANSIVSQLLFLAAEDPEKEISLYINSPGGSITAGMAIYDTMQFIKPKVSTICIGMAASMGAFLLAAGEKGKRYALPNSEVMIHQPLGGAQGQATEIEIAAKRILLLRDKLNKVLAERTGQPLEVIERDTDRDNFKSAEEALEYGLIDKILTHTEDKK
#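 Purified B. subtilis ClpP, 10 microg/mL final in Tris/HCl pH8 with KCl, BSA, glycerol and Tween-20, cleaved an Abz/nitrotyrosine-quenched decapeptide. Fluorescence (ex 320, em 430) was read at 0 and 20 min at room temperature. Delta was normalized to 5.8 microM ADEP and DMSO/no-enzyme controls.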
# Active calls of the source: *; ? = inconclusive; · = no result given; ! = a repeat was not active; [ ] = remark or other dose. The list is partial, so the mix of outcomes need not match the whole.
SMILES,D2 PAM,Sfp inh,gsp ag,TRPV1 potentiator,gsp antagonist,Menin-MLL FL inh,ClpP mod
COc1ccc(S(=O)(=O)N2Cc3ccccc3-n3nncc3C2)cc1,0,·,-25%,·,·,·,1.7%
Nc1nonc1-n1nnc(C(=O)N/N=C/c2ccc3c(c2)OCO3)c1CSc1ccccc1,3,5%,-21%,-2,-26%,-2.4,0.0%
FC(F)(F)c1ccc2c(c1)N(CCCN1CCN(CCCl)CC1)c1ccccc1S2,-44,50µM*,19%,2,-2%[15.4 µM],-2.0,1.9%
Cc1c(C(=O)Nc2ccccc2)cc(-c2ccccc2)n1CCCN1CCOCC1,-6,4%,-12%[15.4 µM],-24,-9%,-0.1,0.4%
O=C(NCCN1CCCCC1)c1ccc(Cl)nc1Cl,2,0%,17%,4,4%,0.2,-5.8%
C=CCOc1ccc(CC2C(=O)N(C)C(=O)N(C)C2=O)cc1,-7,-15%,-4%,18,-9%,3.7,-0.1%
Cc1nc2c(-c3ccccc3)c(C)nn2c(C)c1CCC(=O)N1CCC2(CC1)OCCO2,-18,-1%,-21%,-41,-7%,1.4,-2.4%
Clc1ccccc1C1=NCc2nncn2-c2sc(Br)cc21,-12,·,1%,·,7%,·,·
CCOP(=O)(OCC)c1nc(-c2ccccc2)oc1NCc1ccccc1,4,-16%,19%,14,4%,0.5,?
COC(=O)C1=C(c2c(C)noc2C)C[C@@H]2CC[C@H]1N2C(=O)N1CCC(C)CC1,0,·,-5%,0,7%,·,0.4%
Cc1nc(C)c(C(=O)NN=Cc2ccc(N(CCCl)CCCl)cc2)s1,0,·,-2%,·,-2%,·,?
COc1cc2c(cc1OC)C(C1c3cc4c(cc3CCN1C)OCO4)OC2=O (centres undefined),-14,5%,-6%,4,-9%,0.2,4.8%
Cc1ccc(-n2c(O)c(C=NCCC3=CCCCC3)c(=O)[nH]c2=O)cc1,2,5%,-2%[15.4 µM],7,5%,-0.9,·
Cc1ccc(-c2nc3ccccc3c(=O)n2-c2ccccn2)cc1,18,4%,3%,-10,9%,7.2,1.4%
CCn1c(C)cc(/C=C2\C(=O)NC(=O)N(c3ccccc3C)C2=O)c1C,-1,10%,28%,-3,0%,1.7,-2.1%
COc1ccc2c(c1)cc(C(=O)N[C@@H](Cc1ccccc1)C(=O)N[C@@H](C)C(=O)O)n2C,-2,12%,-34%[inhibitor],-10,11%,0.0,·
CN1C(=O)NC(c2cccc(O)c2)C(C(=O)c2cccs2)C1(O)C(F)(F)F (centres undefined),-14,19%,?,9,-7%,0.3,-0.2%
COC(=O)c1cccc(NC(=O)N2C[C@H]3C[C@@H](C2)c2cccc(=O)n2C3)c1,12,9%,·,-4,12%,-2.6,-3.7%
Cc1ccc(Cn2cc(C=O)c(-c3ccc(F)cc3)n2)cc1,-7,-9%,3%,-7,-2%,8.8,2.8%
Nc1ccc(Cc2ccc(N)c(Cl)c2)cc1Cl,1,·,·,·,-3%,·,0.4%
COC1=CC(=O)[C@]2(C=C1OC)OC[C@@H]1Oc3c(ccc4c3C=CC(C)(C)O4)C(=O)[C@@H]12,3,·,·,·,?,·,-0.9%
CCn1ccnc1CN1CCCC(C(=O)c2cc(Cl)ccc2OC)C1 (centres undefined),-34,-7%,-17%[15.4 µM],-7,·,0.0,·
O=c1[nH]c(=O)n(Cc2ccc(F)cc2)c(O)c1/C=N/Nc1ccccc1,8,-8%,17%[15.4 µM],20,-10%,2.8,·
COc1ccc(OC(=O)N(C)C[C@@H]2OCc3ccccc3-c3c(n(C)c4ccccc34)C(=O)N([C@H](C)CO)C[C@@H]2C)cc1,-7,·,?,·,·,·,-3.4%
C#CC[N+]1(C)[C@@H]2CC(OC(=O)C(CO)c3ccccc3)C[C@H]1C(O)C2 (some centres undefined),-23,11%,-7%,-8,4%,3.1,-2.3%
CN=C(SCC(=O)c1cccc(Cl)c1)c1c(O)n(C)c(=O)n(C)c1=O,-11,-10%,9%[15.4 µM],-1,7%,3.8,·
CCOC(=O)c1ccc(NC(=O)C2C3C=CC(O3)C2C(=O)O)cc1 (centres undefined),·,1%,·,-2,·,4.1,·
CCOC(=O)C(=O)NC1CCSC1=O (centres undefined),-3,23%,-32%[inhibitor],-3,-3%,3.1,-1.6%
Cc1ccc(C2=NN(CCC(=O)N3CCC4(CC3)OCCO4)C(=O)CC2)cc1,1,21%,-16%[15.4 µM],-4,5%,1.8,·
Cc1noc(C)c1CSCC(=O)Nc1ccc(C#N)c(Cl)c1,-3,·,-8%,·,?,·,-0.5%
Clc1ccccc1CN1CCNCC1,-15,-5%,-4%[15.4 µM],-8,11%,2.5,1.5%
CCCCC/C=C\C/C=C\C/C=C\C/C=C\CCCC(=O)O,·,63µM*!,·,-1,·,?,·
CCOc1cc2c(cc1OCC)-n1cccc1C(c1ccccc1F)NC2 (centres undefined),-9,8%,9%,0,-2%,1.1,·
O=c1[nH]c(=O)n(Cc2ccccc2)c(O)c1C=NCCCn1ccnc1,-11,-5%,29%,3,-10%,?,-3.5%
O=C1NCCOC(=O)[C@H](Cc2ccc(F)cc2)CC/C=C/C[C@@H]1CC(=O)N(CCO)Cc1ccccc1,1,·,-43%[inhibitor],·,-2%,·,-1.4%
CC(C)[C@@]1(NC(=O)[C@@H]2C[C@@H]3c4cccc5[nH]cc(c45)C[C@H]3N(C)C2)O[C@@]2(O)[C@@H]3CCCN3C(=O)[C@H](Cc3ccccc3)N2C1=O,0,79µM*!,·,-7,-15%,?,0.1%
O=C1/C(=C/c2ccccc2)C[C@@]2(O)[C@H]3Cc4ccc(O)c5c4[C@@]2(CCN3CC2CC2)C1O5 (some centres undefined),-20,·,·,·,-4%,·,-3.1%
Cc1ccc(-n2c(O)c(C=NCCN3CCOCC3)c(=O)[nH]c2=O)cc1,-10,-10%,3%,-3,0%,0.4,-11%
COc1cccc(CN2CCCCC2c2cccnc2)c1 (centres undefined),-12,-17%,?,-4,-12%,3.1,-0.4%
FC(F)(F)c1cc(-c2ccccc2)nc(N2CCCCCC2)n1,-23,4%,-3%,19,5%,5.6,?
CN(C)CCN=Cc1c(O)n(CCC2=CCCCC2)c(=O)[nH]c1=O,-8,-14%,-11%,16,6%,?,-2.6%
Cc1cc[n+](Cc2ccccc2)cc1,-14,·,-34%[inhibitor],-11,-4%,·,-0.7%
COC(=O)C1=C(c2cccc(OCc3ccccc3)c2)C[C@@H]2CC[C@H]1N2C(=O)NCc1ccc(C(F)(F)F)cc1,-2,·,-74%[inhibitor],-2,-6%,·,0.6%
N#Cc1ccc(NC(=O)CN2CCN(C(=O)c3cccs3)CC2)cc1Cl,-22,·,4%,16,-20%,·,155%
CCC(C)C12CN3CCN(CC(C)(C3)C1=O)C2 (centres undefined),-25,-17%,33%,4,8%,4.5,-2.6%
CP(C)(=O)CCC(=O)O,-14,3%,?,-5,8%,3.5,5.4%
COc1ccc(NC2(C#N)CCCCC2)cc1,-2,11%,-22%,-7,8%,1.2,0.8%
CC(CN1CCOCC1)OC(=O)Cc1ccccc1 (centres undefined),1,12%,-12%[15.4 µM],-8,25%,0.5,·
COC(=O)C1=C(c2c(C)noc2C)C[C@@H]2CC[C@H]1N2C(=O)N1CCC(O)CC1,-6,·,11%,-12,5%,·,0.1%
C=C1N2CCC(CC2)C1(O)c1ccc(C)c(C)c1 (centres undefined),-1,7%,-4%,6,3%,1.4,0.5%
O=P(Nc1cccc(Cl)c1)(Oc1ccccc1)Oc1ccccc1,1,0%,-26%,-4,-11%,0.3,·
N[C@@H](Cc1c[nH]c2ccccc12)c1nnc(SCc2ccccc2F)o1,5,-4%,26%,4,4%,1.2,0.0%
O=C1NC(=O)N(c2ccc(F)cc2)C(=O)/C1=C/c1ccc(N2CCOCC2)cc1,6,40µM*,1%[15.4 µM],-20,-7%,6.3,·
O=C1NC(=O)C2(Cc3cc([N+](=O)[O-])ccc3N3CCN(C(=O)c4ccccc4)CC32)C(=O)N1 (centres undefined),-9,6%,-4%[15.4 µM],6,19%,0.9,-1.5%
Cc1cc(OC(C)C(=O)NCc2cccnc2)c2c3c(c(=O)oc2c1)CCC3 (centres undefined),0,13%,?,13,?,·,3.4%
COC(=O)c1cn(CC(=O)NC2CCCCC2)c2ccccc12,-3,-1%,-17%,-5,10%,4.1,-2.1%
NC(=O)Nc1ccc(C(=O)OCC(=O)Nc2ccc(Cl)cc2C(=O)c2ccccc2)cc1,-2,-13%,10%,2,1%,3.6,-0.1%
CCC(N)Cc1c[nH]c2ccccc12 (centres undefined),-4,9%,-2%,8,-4%,-1.4,-4.1%
COc1ccc2c(c1)NP(=S)(c1ccccc1)N2 (centres undefined),-4,·,?,·,-12%,·,·
Cc1ccc2c(c1Cl)NC(C(=O)O)C1CC(Sc3ccccc3[N+](=O)[O-])C(Cl)C21 (centres undefined),-4,?,0%,8,-5%,15,-2.0%

# 3 records picked at random from the list so far, as already listed:
SMILES,D2 PAM,Sfp inh,gsp ag,TRPV1 potentiator,gsp antagonist,Menin-MLL FL inh,ClpP mod
NC(=O)Nc1ccc(C(=O)OCC(=O)Nc2ccc(Cl)cc2C(=O)c2ccccc2)cc1,-2,-13%,10%,2,1%,3.6,-0.1%
N[C@@H](Cc1c[nH]c2ccccc12)c1nnc(SCc2ccccc2F)o1,5,-4%,26%,4,4%,1.2,0.0%
Cc1cc[n+](Cc2ccccc2)cc1,-14,·,-34%[inhibitor],-11,-4%,·,-0.7%

# Continued:
SMILES,D2 PAM,Sfp inh,gsp ag,TRPV1 potentiator,gsp antagonist,Menin-MLL FL inh,ClpP mod
Cc1ccc(NC(=S)NCC2CCCO2)cc1 (centres undefined),3,-1%,-1%,21,-2%,-0.5,-3.3%
CC1=C(C(=O)N2CCC3(CC2)OCCO3)C2(CCC(C)CC2)OC1=O (centres undefined),-10,4%,?,-9,3%,-0.4,0.2%
COc1ccc(CCNCc2ccc(OC)c(OC)c2OC)cc1,-20,-15%,-8%,-2,2%,2.5,0.7%
C[C@]12CCC3C(CC[C@H]4C[C@@H](O)CC[C@]34C)C1C[C@@H](O)[C@]2(C)O (some centres undefined),-1,·,-2%,·,0%,·,·

# Assay outcomes deposited in PubChem by National Center for Advancing Translational Sciences (NCATS).
